# H5N1 CPE – antiviral screen in MDCK cells, H5N1 avian flu; cytopathic effect, luminescence, 72 h; hits give high values; no value below 0 was filed and about half of the inactive calls have no number; reference of the scale not given here; inhibition, % at 50 µM; 96,000 tested, 0.07% active; in the data active means inhibition above about 25%
# Starred values were filed as active, the others as inactive; i = inactive. This is a subset, so the mix of outcomes need not match the whole.
# The first 7 compounds, to show the layout:
No.	canonical_smiles	H5N1 CPE
1	CN(C)S(=O)(=O)c1cc([N+](=O)[O-])ccc1N1CCCCCC1	0.8
2	Cc1nc(N2CCOCC2)c2oc3ccccc3c2n1	4.4
3	COc1ccc2nc(/N=C/c3c(O)n(-c4cccc(Cl)c4)c(=O)[nH]c3=O)sc2c1	7.7
4	O=c1cc(CSc2nnnn2-c2ccccc2)nc(Nc2ccc(F)cc2)[nH]1	i
5	CN1CCN(C(=O)C2C3C=CC(C3)C2C(=O)O)CC1 (stereo unspecified)	i
6	COCCN(Cc1ccccc1)P(=O)(O)c1ccccc1OCC(=O)O	0.7
7	Cc1cccc(N(C2C=CS(=O)(=O)C2)S(=O)(=O)c2ccccc2)c1 (stereo unspecified)	1.9

# This part in full, from the first entry:
No.	canonical_smiles	H5N1 CPE
1	CN(C)S(=O)(=O)c1cc([N+](=O)[O-])ccc1N1CCCCCC1	0.8
2	Cc1nc(N2CCOCC2)c2oc3ccccc3c2n1	4.4
3	COc1ccc2nc(/N=C/c3c(O)n(-c4cccc(Cl)c4)c(=O)[nH]c3=O)sc2c1	7.7
4	O=c1cc(CSc2nnnn2-c2ccccc2)nc(Nc2ccc(F)cc2)[nH]1	i
5	CN1CCN(C(=O)C2C3C=CC(C3)C2C(=O)O)CC1 (stereo unspecified)	i
6	COCCN(Cc1ccccc1)P(=O)(O)c1ccccc1OCC(=O)O	0.7
7	Cc1cccc(N(C2C=CS(=O)(=O)C2)S(=O)(=O)c2ccccc2)c1 (stereo unspecified)	1.9
8	CCc1ccc(O)c(N=Cc2ccccc2O)c1	i
9	O=C(c1ccccc1)c1nn(-c2cccc(Cl)c2)c2nc(-c3ccccc3)cc(=O)n12	0.2
10	CCOc1ccc(NS(=O)(=O)c2ccc(SC)cc2)cc1	i
11	CCn1c(SCC(=O)c2ccccc2)nnc1-c1cc2cc(Br)ccc2o1	1.7
12	CC(=O)NC(Cc1c[nH]c2ccccc12)C(=O)OCC(=O)Nc1ccc2c(c1)OCO2 (stereo unspecified)	0.5
13	CC(=O)c1ccc(-n2nnnc2SCC(=O)NNC(=O)c2ccco2)cc1	i
14	Cc1ccc(SCc2cc(=O)[nH]c(N3CCN(Cc4ccc5c(c4)OCO5)CC3)n2)cc1	i
15	CC1CC(C)CN(C(=O)CSc2nnc(CSc3ncccn3)n2C)C1 (stereo unspecified)	0.5
16	Cc1cc(C)c(NC(=O)c2cc3c(nc4sccn43)s2)c(C)c1	i
17	Cc1c(NC(=O)N2CCCCCC2)c(=O)n(-c2ccccc2)n1C	0.9
18	Cc1ccc2nc(NC(=O)CN3CCOCC3)sc2c1	i
19	Cc1nn(C(C)C(=O)NNC(=S)Nc2ccc(F)cc2)c(C)c1[N+](=O)[O-] (stereo unspecified)	0.6
20	Cn1c(C(=O)N2CCCC(C(=O)NCCc3ccccc3)C2)cc2sccc21 (stereo unspecified)	1.7
21	COc1ccccc1-c1nc(-c2ccc(Br)o2)no1	i
22	COc1cccc(C2(CSc3nnc(-c4cc(OC)c(OC)c(OC)c4)o3)OCCO2)c1	1.1
23	CC(C)N=C(NC#N)SCc1ccc(Br)cc1	1.0
24	CCCC(=O)OCCNC(=O)c1cc2ccccc2oc1=O	i
25	COc1cc2c(cc1OC)C(c1ccc(-c3ccc(Cl)cc3Cl)o1)=NCC2	i
26	COc1ccc(-c2nnc(SCC(=O)N3CCCC(C)C3)o2)c(OC)c1 (stereo unspecified)	i
27	CCC(c1nnnn1CCc1ccccc1)N(Cc1ccco1)Cc1cc2cc(C)cc(C)c2[nH]c1=O (stereo unspecified)	i
28	CC(C)c1ccc(C2CC(=O)N3CN(Cc4ccco4)CSC3=C2C#N)cc1 (stereo unspecified)	i
29	CCn1c(=O)cc(OCC(=O)Nc2cccnc2)c2ccccc21	i
30	Brc1cnc(N2CCOCC2)nc1N1CCCCC1	1.0

# 4 of the compounds above, as labelled records.
27: CCC(c1nnnn1CCc1ccccc1)N(Cc1ccco1)Cc1cc2cc(C)cc(C)c2[nH]c1=O (stereo unspecified)
  H5N1 CPE: i

28: CC(C)c1ccc(C2CC(=O)N3CN(Cc4ccco4)CSC3=C2C#N)cc1 (stereo unspecified)
  H5N1 CPE: i

29: CCn1c(=O)cc(OCC(=O)Nc2cccnc2)c2ccccc21
  H5N1 CPE: i

30: Brc1cnc(N2CCOCC2)nc1N1CCCCC1
  H5N1 CPE: 1.0

# (list continues)
No.	canonical_smiles	H5N1 CPE
31	CC(=O)N1c2c(cc(Br)cc2S(=O)(=O)NCc2cccnc2)CC1C (stereo unspecified)	0.2
32	Cn1c(Cn2c(=O)sc3ccccc32)nnc1SCC(=O)Nc1ccccc1	i
33	CC(C)C1Cc2c(sc3c2c(=O)n(Cc2ccccc2)c2nncn32)CO1 (stereo unspecified)	3.3
34	O=C(COc1ccc(C(=S)N2CCOCC2)cc1)N1CCCC1	0.4
35	COc1ccc(N2CC(C)Cn3c2nc2c3c(=O)[nH]c(=O)n2C)cc1 (stereo unspecified)	1.8
36	C=COCCNC(=O)C(=O)NC(C)C	0.1
37	CCC(=O)Nc1cccc(Oc2nc(C)cc(C)c2C#N)c1	0.3
38	CCOc1ccc(-n2c(SCC(=O)Nc3cc(C)on3)nc3c([nH]c4ccccc43)c2=O)cc1	i
39	CC(C)c1ccc(CNc2cc(N3CCCC3)ccc2[N+](=O)[O-])cc1	1.1
40	O=C(O)c1cccnc1SC1CC(=O)N(c2cccc(C(F)(F)F)c2)C1=O (stereo unspecified)	0.4
41	O=C(c1cc(-c2cccc(O)c2)on1)N1CCOCC1	i
42	CCSc1ncc(Cl)c(C(=O)N(Cc2ccc(N(C)C)cc2)C2CCS(=O)(=O)C2)n1 (stereo unspecified)	0.8
43	Cc1ccc(C(CC(=O)O)Nc2nc(N3CCCCC3)nc(N3CCCCC3)n2)cc1 (stereo unspecified)	1.4
44	CCOc1ccc(C(=O)CSc2nnc3ccccn23)cc1	1.0
45	CNC(=S)N1N=C(c2ccc(Br)cc2)CC1c1ccc(Br)cc1 (stereo unspecified)	0.9
46	CCN(CC)S(=O)(=O)c1ccc(-c2nnc(SCC(C)=O)o2)cc1	0.4
47	COc1ccc(-c2n[nH]c(C)c2-c2cc(OC)ccc2O)cc1	1.1
48	COc1ccc(C(=O)N(CN2CCCC2=O)c2nccs2)cc1OC	i
49	OC(COc1cccc2ccccc12)CN1CCN(c2ccccn2)CC1 (stereo unspecified)	i
50	COc1ccc(-c2noc(-c3ccc(Br)o3)n2)cc1OC	i
51	CC(c1ccccc1)N1CNc2c(c(=O)n(C)c(=O)n2C)C1 (stereo unspecified)	0.2
52	C=CCn1c(=O)c2ccccc2n2c(SCc3cc(=O)n4ccsc4n3)nnc12	3.2
53	Cc1noc(C)c1S(=O)(=O)Nc1c(C)n(C)n(-c2ccccc2)c1=O	2.1
54	c1ccc2c(CN3CCN(C4CCCCC4)CC3)c[nH]c2c1	i
55	Cc1c(C(=O)NCc2cccnc2)oc2ccc(S(=O)(=O)N3CCCC(C)C3)cc12 (stereo unspecified)	2.2
56	CCCC(c1nnnn1CS(=O)(=O)c1ccc(C)cc1)N1CCN(c2ccccc2)CC1 (stereo unspecified)	3.8
57	CC(NC(=O)Cn1cnc2c1c(=O)n(C)c(=O)n2C)c1ccccc1 (stereo unspecified)	0.4
58	COC(=O)c1sc2cnccc2c1N	0.1
59	Cc1noc(C)c1CSc1nnc2scc(-c3ccc(Cl)cc3)n12	5.7
60	CCOC(=O)c1cc(CC)sc1NC(=O)C1CC1	i
61	CN(CC(=O)NCCc1ccc(Cl)cc1)S(=O)(=O)c1ccc2c(c1)c(=O)n(C)c(=O)n2C	0.9
62	CCOc1ccc(-c2nnn(CCC(=O)O)n2)cc1OC	i
63	COCCNC(=O)c1onc(CSc2cc(C)ccc2C)c1C(=O)O	i
64	C=CCc1cccc2cc(C(=O)N(CC)CC)c(=O)oc12	i
65	c1ccc(CSc2nnc(-c3ccco3)c(-c3ccco3)n2)cc1	i
66	COc1cc(/C=N/NC(=O)c2ccncc2)ccc1OC(=O)c1ccc([N+](=O)[O-])cc1	0.1
67	Cc1cc(C)cc(NC(=O)Cn2c(=O)oc3cc(S(=O)(=O)N4CCC(C)CC4)ccc32)c1	i
68	COC(=O)CSc1nnc(-c2cccnc2)o1	i
69	FC(F)(F)c1nc(-c2ccncc2)ncc1-c1nnnn1-c1ccccc1	0.4
70	O=C(CSc1nnc(-c2cc3ccccc3cc2O)n1Cc1ccco1)N1CCc2ccccc2C1	i
71	Cc1ccc(NC(=O)c2ccccc2OCC(=O)c2ccccc2)cc1	i
72	COc1ccc(C2=NOC(C(=O)NCCCn3ccnc3)C2)cc1 (stereo unspecified)	1.5
73	Cc1ccccc1Cc1c(C)nc2nc(SCC(=O)N3CCC4(CC3)OCCO4)nn2c1C	0.0
74	CCC(=O)N1CCN(c2c(Cl)cccc2[N+](=O)[O-])CC1	0.3
75	CCS(=O)(=O)NCC(c1cccnc1)N1CCN(c2ccccc2OC)CC1 (stereo unspecified)	1.8
76	CC(C)Nc1nc(Oc2ccc(Cl)cc2)cc(C(F)(F)F)n1	0.2
77	CNC(=O)Nc1ccccc1NC(=O)NC	i
78	COCCOC(=O)c1[nH]c2c(c1C)C(=O)CC(c1ccc(F)cc1)C2 (stereo unspecified)	i
79	COCCn1c(SCC(=O)Nc2sc(C)c(C)c2C#N)nnc1-c1ccc(OC)cc1	0.9
80	Cc1cccc(N2CCN(Cc3oc(CO)cc(=O)c3O)CC2)c1C	1.6

# Remaining list, next part
No.	canonical_smiles	H5N1 CPE
81	CC1C/C(=N/N=C2/NC(=O)CS2)CC(C)(C)C1 (stereo unspecified)	i
82	CCCC(=O)OCC(=O)Nc1ccc(OC(F)F)cc1	1.8
83	COCCOc1ccc(C(F)(F)F)cc1NC(=O)COC(=O)c1c(C)noc1C	0.2
84	COc1ccccc1NC(=O)C1=C(C)Nc2nc(-c3cccs3)nn2C1c1cccnc1 (stereo unspecified)	i
85	CC(=O)c1cc(OC(=O)N2CCOCC2)ccc1OC(=O)N1CCOCC1	i
86	COCCCNC(=O)CSc1ccc(Cl)cc1	0.4
87	Cc1ccc(-c2nc(C#N)c(NCc3cccc4c3OCO4)o2)cc1	0.1
88	COc1ccc(C(=O)c2c[nH]c3ccccc23)cc1	0.1
89	O=C(NCC(=O)N(c1ccccc1F)C(C(=O)NCC1CCCO1)c1ccccc1)c1ccco1 (stereo unspecified)	2.4
90	Cc1ccc(NS(=O)(=O)c2ccc(CCC(=O)NCCO)cc2)cc1	0.5
91	COc1ccc(/C=C\C(=O)CC(O)(c2ccccc2)C(F)(F)F)cc1 (stereo unspecified)	0.8
92	CC1CN(c2nc3c(c(=O)[nH]c(=O)n3C)n2Cc2ccccc2F)CC(C)O1 (stereo unspecified)	2.5
93	O=C(Oc1ccccc1Cl)c1ccc(-n2cncn2)nc1	0.1
94	O=C(O)Cn1nc(-c2ccccc2)oc1=O	i
95	Clc1ccc(C2=Nn3c(nnc3-c3n[nH]c4c3CCC4)SC2)cc1Cl	i
96	CC(=O)Nc1ccc(S(=O)(=O)N2CCN(CCC#N)CC2)cc1	0.2
97	COc1ccc(OC)c(NC(=O)CCN2CCCC(C)C2)c1 (stereo unspecified)	0.5
98	O=C(CSc1nnnn1-c1ccccc1)Nc1nsc(-c2ccc(Cl)cc2)n1	1.2
99	CC1Cc2ccccc2N1C(=O)CSc1nnnn1C(C)C (stereo unspecified)	0.6
100	CCOC(=O)C1CCN(C(=O)c2cc(S(=O)(=O)N3CCOCC3)c(Cl)cc2Cl)CC1	0.5
101	CCCCS(=O)(=O)N1CN(S(=O)(=O)CCCC)C2NC(=O)NC21 (stereo unspecified)	0.1
102	COc1ccccc1-c1nc(C(N)=O)c2[nH]c(=O)n(-c3cccc(C)c3)c2n1	2.2
103	COc1cc(CSc2ncn[nH]2)c(OC)cc1CSc1ncn[nH]1	1.6
104	COc1cccc(OC)c1OCC(O)CN1CCN(c2ccccc2)CC1 (stereo unspecified)	i
105	COc1ccc(N(CC(O)CN2C(=O)NC(C)(C)C2=O)S(=O)(=O)c2ccc(C)cc2)cc1 (stereo unspecified)	0.3
106	CCCCS/C(N)=N/N=C/c1ccccc1O	0.4
107	O=C(COc1ccccc1)N/N=C/c1cc2c(cc1[N+](=O)[O-])OCO2	i
108	N#Cc1nc(COc2cccc(Cl)c2)oc1NCc1ccncc1	3.0
109	Cc1occc1-c1nnc(SCC(=O)c2ccc(Cl)cc2)n1C	0.8
110	CC1CCCCN1CCCNC(=O)c1ccc2c(=O)n(CCc3ccccc3)c(=O)[nH]c2c1 (stereo unspecified)	i
111	Nc1nc(-c2ccco2)nn1C(=O)c1ccccc1	i
112	N#CC1=C(N)Oc2cc3c(cc2C1c1ccc(Cl)cc1)OCO3 (stereo unspecified)	2.0
113	O=c1[nH]c(=O)n(Cc2ccccc2)c(O)c1C=NCCN1CCNCC1	i
114	Cc1nc2oc3c(NCC4CCCO4)ncnc3c2c2c1COC(C)(C)C2 (stereo unspecified)	1.6
115	Cc1cccc(NC(=O)c2ccc(N(C)C3CCCCC3)c([N+](=O)[O-])c2)n1	i
116	Cc1cc(-c2ccco2)n(CC(=O)NCCN(C)C)n1	0.9
117	O=C(CCn1c(=O)oc2ccccc21)N1CCN(c2ccccc2F)CC1	0.3
118	O=C1c2ccccc2C(=O)N1CC1CCCO1 (stereo unspecified)	i
119	O=S(=O)(NC1=NCCCCC1)c1cccs1	i
120	COc1ccc(C(=O)Nc2ccccc2-c2nnn(CC(=O)Nc3ccc4c(c3)OCCO4)n2)cc1	0.8
121	O=C1CN=C(c2ccccc2)c2ccccc2N1Cc1ccc(C(F)(F)F)cc1	i
122	COc1ccccc1C(=O)NCC(=O)OC(C)C(=O)NC(=O)NC1CCCCC1 (stereo unspecified)	0.4
123	N#CC1=C(N)Oc2cc(O)ccc2C1C1CCCCC1 (stereo unspecified)	1.0
124	CN1CCN(C(=O)c2cc3c(n(-c4ccccc4)c2=O)CC(C)(C)CC3=O)CC1	1.4
125	C=C1C(C(=O)N2CCOCC2)C1C(=O)N1CCOCC1 (stereo unspecified)	i
126	Cc1cc(NS(=O)(=O)c2ccc(NC(=O)Nc3cccc(Cl)c3)cc2)no1	i
127	CCOC(=O)c1c(C)[nH]c(C)c1C(=O)CN1C(=O)NC2(CCC(C)CC2)C1=O (stereo unspecified)	i
128	CN(C)C(=O)CN1C(=O)C2CCCCN2C(=O)c2ccccc21 (stereo unspecified)	0.1

# Screening data deposited in PubChem BioAssay by SRMLSC.
